Screening results as filed in PubChem BioAssay.
ugtP null kill: growth inhibition of ugtP-null S. aureus, primary screen, RN4220 ugtP deletion, OD600 | AID 1259309, 2017 | growth inhibition, % (test concentration not listed) | 0.54% of 330,000 active | 16 h; some inactives read as strong as hits;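 active = z-score under -3 and OD600 up to 0.15 on both plates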;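 also: plate controls were untreated wells for no effect and antibiotic for full effect; wells of about 80 µL received 100 nL stock; the first replicate is given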
Autofluor counter: flagged as autofluorescent in microsphere protease counterscreen; compound autofluorescence counterscreen, microsphere flow cytometry; hits give high values; fluorescence intensity (no concentration beside the values); 3.1% of 360,000 active;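 active = at least 3 SD above the mean of all compounds, about 16000 in these data; inconclusive = too few beads counted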;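 also: 100 nL of 1 mM stock went into each well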
RN4220 kill: growth inhibition of S. aureus RN4220, primary screen, OD600. 16 h. inhibition, % (no concentration beside the values). 0.33% of 330,000 active. AID 1259311, 2017;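 active = z-score of -3 or lower and OD600 up to 0.18 on both plates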;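 also: plate controls were untreated cells for no effect and reference antibiotic for full effect; stock transfer was 100 nL into about 80 µL; one replicate is shown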
Mtb hypoxia inh: PubChem AID 1159583; M. tuberculosis hypoxia-regulated fluorescent reporter, fluorescence; fluorescence inhibition, % (concentration not given with the values); 0.1% of 300,000 active;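 active = 35 to 45% if threefold the growth effect, above 45% if 1.5-fold the growth effect; inactive = the rest, general growth blockers included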;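 also: wells of about 50 µL received 100 nL stock; 0% = vehicle wells and 100% = reference inhibitor wells; whole bacteria with a GFP reporter of the hypoxia response; strong numbers were not always called active; many hits fall short of the cut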
PrP UTR inh: inhibition of PrP 5' UTR reporter expression. inhibition, % (no concentration beside the values). cell-based PrP 5' UTR mRNA reporter, plate reader. 0.35% of 340,000 active;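 active = every replicate at 50% or more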;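 also: 0 = median of the neutral control wells; tested in H4 reporter cells; numbers are from one replicate; inactives centre near -14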
BJeLR viability: MLPCN primary cell-based screen for lethality selective to Ras in HRASV12 cells. BJeLR (HRASV12) viability, CellTiter-Glo ATP luminescence, 48 h; reference of the scale not given here. inhibition, % (concentration not given with the values). 0.17% of 300,000 active. AID 1554, 2009;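 active = replicate mean above 50%; inconclusive = above 50% but judged a plate artefact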;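 also: 50 nL library stock added to about 25 µL; numbers are from one replicate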
Mtb hypoxia inh growth: recorded beside Mtb hypoxia inh, whose call it bears; growth inhibition, %; measured here: M. tuberculosis growth (absorbance);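 0% = vehicle and 100% = reference antibiotic; read after six days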
* = called active by the depositor; u = inconclusive; x = not tested or not shown; & = joins results of further samples.

SMILES	ugtP null kill	Autofluor counter	RN4220 kill	Mtb hypoxia inh	Mtb hypoxia inh growth	PrP UTR inh	BJeLR viability
O=c1c2cc(N3CCOCC3)ccc2[nH]c(=S)n1CCCN1CCN(c2ccccc2F)CC1	-3	x	3.8	-4	-3	x	x
COc1ccccc1-c1nnc(NC(=O)C(C)C)s1	2	2379	0.2	x	x	-22	9
CCS(=O)(=O)N1CCN=C1SCc1cccnc1	10	2478	-0.4	2	13	-10	-5
Cc1c(Cc2ccccc2)c(NCCN(C)C)n2c(nc3ccccc32)c1C#N	9	3291	2.5	10	-1	-4	22
COc1cc(NC(=S)N2CCCC(CO)C2)c(OC)cc1Cl (stereo not drawn)	2	2592	3.3	12	8	-11	0
CC1CCCC(NC(=O)NC(=O)CCl)C1C (stereo not drawn)	-4	2182	12	x	x	-25	2
N#CC(=NNc1ccc(Cl)cc1)C(=O)c1ccsc1	99*	x	100*	13	13	x	x
O=[N+]([O-])c1cc([N+](=O)[O-])c(Oc2cncc(Cl)c2)cc1NN1CCCCC1	13	2962	24	3	1	-7	6
CSc1ncc(Cl)c(C(=O)Nc2cccc(Cl)c2)n1	-1	3945	2.4	-5	3	x	1
Cc1oc(C)c(S(=O)(=O)NCc2cccs2)c1C(=O)O	1	4495	3.0	-2	-8	-12	-5
Cc1cccc(-c2nc(Nc3ccc(O)cc3)c3ccccc3n2)c1	28	6320	-6.1	-2	-6	-3	-8
CCOC(=O)c1cc(-c2ccc(OC)cc2)nn1-c1ccc(C(=O)O)cc1	5	4263	6.4	3	16	-11	6
COc1ccc(/C=N/NC(=O)c2ccccc2)cc1OS(=O)(=O)c1ccccc1	x	2239	x	x	x	-15	-9
COc1ccccc1[C@H]1C(c2ccc(F)cc2)=NN(c2ccccc2)[C@@H]1CO	11	3579	-7.7	4	7	-17	x
CCOC(=O)C1CCN(C(=O)CN2C(=O)C(C(C)C)Oc3ccccc32)CC1 (stereo not drawn)	1	2961	-6.8	6	3	2	0
COc1ccc(C(=O)O/N=C(\N)Cc2cccs2)cc1OC	3	5857	4.4	6	11	-14	0
Cc1cccc(NC(=O)CNC(=O)COc2ccc(C(=O)c3ccc(F)cc3)cc2)c1C	4	9628	2.7	9	8	-10	4
Cc1ccc(C(=O)NCc2ccc3c(c2)CCO3)cc1C	4	4069	1.6	2	12	-31	6
CCOC(=O)c1c(C)n(C)c2ccc(OC)c(NC(=O)c3cccs3)c12	-5	4680	1.7	5	6	-6	-6
CCOC(=O)c1ccc(NS(=O)(=O)c2cccc3nsnc23)cc1	-1	3348	4.2	x	x	4	13
CN(CC(=O)NC(=O)NCc1ccccc1)CC(=O)Nc1ccc(Cl)c(Cl)c1	-22	3765	-8.9	17	5	-9	x
CCN(CC)P(=O)(/C=C(\Cl)c1ccccc1)/C=C(\Cl)c1ccccc1	8	4340	3.7	17	14	-35	-9
COCc1[nH]nc2c1C1(C(=O)Nc3ccc(F)cc31)C(C#N)=C(N)O2 (stereo not drawn)	3	4646	8.0	x	x	-8	-7
COc1ccc(N=C2C(=Nc3ccc(OC)cc3)N(c3ccccc3)C(=S)N2C(=O)c2ccc(Cl)cc2)cc1	-6	9996	0.3	-3	6	-66	-11

Copied from the entries so far (3 entries):
SMILES	ugtP null kill	Autofluor counter	RN4220 kill	Mtb hypoxia inh	Mtb hypoxia inh growth	PrP UTR inh	BJeLR viability
COc1ccc(/C=N/NC(=O)c2ccccc2)cc1OS(=O)(=O)c1ccccc1	x	2239	x	x	x	-15	-9
COc1ccccc1[C@H]1C(c2ccc(F)cc2)=NN(c2ccccc2)[C@@H]1CO	11	3579	-7.7	4	7	-17	x
CCOC(=O)C1CCN(C(=O)CN2C(=O)C(C(C)C)Oc3ccccc32)CC1 (stereo not drawn)	1	2961	-6.8	6	3	2	0

New compounds follow
SMILES	ugtP null kill	Autofluor counter	RN4220 kill	Mtb hypoxia inh	Mtb hypoxia inh growth	PrP UTR inh	BJeLR viability
O=C(NC1CCCc2ccccc21)c1ccccn1 (stereo not drawn)	4	5454	-1.6	11	6	-11	2
CCn1cc(Cl)c(C(=O)Nc2ccccc2C(N)=O)n1	3	4496	-1.8	3	1	-19	-19
O=C(CCc1ccccc1)NCCc1ccc(F)cc1	-1	3909	-0.2	-6	3	-12	-8
O=C(Cn1cnc2ccccc2c1=O)N(Cc1ccco1)c1ccc(O)cc1	-1	6982	-0.7	3	1	-8	-1
Cc1ccccc1-n1ncc2c1CC(C)(C)CC2NC(=O)C1CCC1 (stereo not drawn)	7	6147	3.5	8	3	-22	11
CCCCCCCNC(=O)CN1C(=O)CSc2ccc(S(=O)(=O)N3CCOCC3)cc21	-1	5518	2.5	5	-2	-21	12
COc1ccc(N2CCN(CCNC(=O)Nc3cc(Cl)ccc3OC)CC2)cc1	2	3714	1.8	1	-2	-16	-1
CCN(CC(=O)Nc1ccc(N2CCOCC2)cc1)C(=O)Cc1ccccc1	4	8187	3.3	6	3	-5	x
CCCCCCNCc1c(F)cccc1Cl	1	2351	2.1	-7	5	-18	0
CC(=O)c1c(C)[nH]c(C(=O)COC(=O)CCOc2ccc(C)cc2)c1C	10	5256	2.8	0	-2	-13	0
COc1ccc(S(=O)(=O)N/N=C(/C)c2ccncc2)cc1OC	x	6173	x	x	x	-11	0
O=C(c1ccc2c(c1)OCO2)C1CCCN(Cc2cccc(C(F)(F)F)c2)C1 (stereo not drawn)	8	5675	2.2	12	-2	0	2

Some values from above:
Mtb hypoxia inh growth with `CCN(CC(=O)Nc1ccc(N2CCOCC2)cc1)C(=O)Cc1ccccc1` is entered as 3
Mtb hypoxia inh growth with `O=C(Cn1cnc2ccccc2c1=O)N(Cc1ccco1)c1ccc(O)cc1` is entered as 1
RN4220 kill with `CCCCCCNCc1c(F)cccc1Cl` is entered as 2.1

(cont.)
SMILES	ugtP null kill	Autofluor counter	RN4220 kill	Mtb hypoxia inh	Mtb hypoxia inh growth	PrP UTR inh	BJeLR viability
COCC(C)NC(=O)c1ccccc1[N+](=O)[O-] (stereo not drawn)	11	2413	5.0	x	x	-18	3
NCCc1cnc[nH]1	-6	5955&4252	2.6	-5	-2	-22&-6	-1&3
O=C(NNC(=S)NCc1ccc(Cl)cc1)c1ccc2c(c1)OCO2	-3	6824	4.5	13	5	-64	x
Cc1cc(C)cc(C(=O)Nc2cccnc2Cl)c1	x	3291	x	x	x	-13	1
COc1ccc(-n2cc3c(-c4cccc(Br)c4)nnc(C)c3n2)cc1	x	48432*	x	x	x	-9	-5
Cc1ccc(S(=O)(=O)NCC(=O)N(CC(=O)NC2CCCCC2)Cc2ccco2)cc1	7	3489	4.7	x	x	-11	-4
COc1ccccc1NC(=O)CSc1nnc(C)n1Cc1ccccc1	3	7618	4.2	3	6	-13	-3
CC(=O)Nc1nc(-c2ccccc2)nc(C)c1C(C)=O	-1	2892	8.8	16	10	-25	5
COc1ccc(-c2coc3cc4oc(=O)c5ccccc5c4cc23)cc1F	-8	3404	9.7	-3	-1	27	50
COC(=O)C(NC(C)=O)(Nc1ccc(Br)cc1)C(=O)OC	-5	8350	13	4	0	-7	-6
O=S(=O)(Nc1cccc(CO)c1)c1cccs1	4	3870	4.4	12	5	x	-4
O=C(NCc1ccc(Cl)cc1)C(=O)NCC(c1ccco1)N1CCOCC1 (stereo not drawn)	1	10171	0.8	3	-9	-3	5
CC(=O)NNC(=O)c1csc(-c2csc(C)n2)n1	3	3836	1.0	1	2	-6	-7
O=C1c2cc(O)cc(O)c2C(=O)c2c1cc(O)c([C@@H](CO)CCO)c2O	2	5375	9.4	x	x	-20	-2
CC(=O)c1cccc(NC(=S)NC2CCCCCCC2)c1	-6	u	1.1	5	6	-6	x
O=C(CN(CC1CCCO1)C(=O)c1nsc(Cl)c1Cl)NC1CCCC1 (stereo not drawn)	6	2022	6.0	5	0	-11	2
Cc1noc(C(=O)NC2CCCCC2)c1Cl	-6	4515	0.3	6	25	1	-6
CC(C(=O)Nc1ccc2ccccc2c1)C1C[C@]1(C)C(NC(=O)c1cnccn1)c1ccccc1 (stereo partly drawn)	1	x	4.1	12	15	x	x
COc1ccc(C(=O)NCC(=O)Nc2cccc(S(=O)(=O)NCc3ccco3)c2)cc1OC	3	4722	5.6	7	-4	-15	-1
O=C(N/N=C/c1cccnc1)c1cc2ccccc2cc1O	x	5482	x	x	x	-5	2
O=C(NCC1COc2ccccc2O1)c1cn(Cc2ccc(F)cc2)nn1 (stereo not drawn)	3	3625	7.6	x	x	-1	-5
CCCOC(=O)C[N+](C)(C)CCOC1CC2CCC1(C)C2(C)C (stereo not drawn)	10	3936	-3.9	-1	-2	5	-6
COc1ccc(/C=N/NC(=O)c2cccnc2)cc1COc1ccc([N+](=O)[O-])c(C)c1	x	4287	x	x	x	-8	4
Cn1c(SCc2ccc(Cl)cc2)nc(C(F)(F)F)cc1=O	-9	20153*	3.5	12	12	5	1
CCCCn1c(-c2ccco2)nc2ccccc2c1=O	10	4132	1.9	x	x	-11	-18
COc1ccc2[nH]c3c(=O)n(Cc4ccncc4)cnc3c2c1	5	4338	7.9	5	6	-30	-2
COc1ccccc1N1CCN(C2CCCN(S(=O)(=O)c3cccc(Cl)c3)C2)CC1 (stereo not drawn)	2	5213	-0.3	8	3	-10	3
Cc1c(Cl)ccc2c(C(N)=O)cc(-c3ccccn3)nc12	2	4672	-0.3	0	8	-17	9
COc1ccc(C(=O)O)cc1S(=O)(=O)Nc1cc(Cl)ccc1N1CCOCC1	3	3510	1.0	4	2	-11	x
N#Cc1ccccc1S(=O)(=O)N1CCN(CC(=O)Nc2ccccc2C(=O)NC2CC2)CC1	-1	3641	-0.4	19	9	-20	x
O=C(Nc1ccc(S(=O)(=O)NC2=NCCCCC2)cc1)c1ccc2ccccc2n1	2	3131	7.5	8	14	-7	-1
Cn1c(=O)c2c(nc(SCCN3CCCCC3)n2Cc2ccccc2)n(C)c1=O	4	9555	-1.1	2	1	-15	-3
O=C(CSc1nnc(Cc2cccs2)n1Cc1ccco1)Nc1ccc(Br)cc1	-13	2414	-7.7	-2	5	-7	1
CCOc1ccc(Cc2nnc(SCC(=O)Nc3ccc(C(C)=O)cc3)[nH]c2=O)cc1	-4	6469	-3.3	-4	2	-7	10
C=C(C)Cn1c(C)cc(C)c(S(=O)(=O)c2cccc(C)c2)c1=O	11	2441	8.0	0	-5	-24	-10
COC(=O)C1CCN(C(=O)COC(=O)c2cc(S(=O)(=O)N3CCOCC3)ccc2C)CC1	2	6264	2.9	0	2	2	x
NS(=O)(=O)c1ccc(NC(=O)CSc2n[nH]c(=O)n2C2CC2)cc1	2	3837	1.6	-5	1	-5	x
Cc1cc(C)cc(OCCCCn2cncn2)c1	12	3133	5.9	-6	-6	-10	-2
COc1cccc(C=Nn2cnc3cc(C)c(C)cc32)c1OC	-3	x	1.8	4	9	x	x
CCCN1c2cccc3cccc(c23)S1(=O)=O	-1	4689	5.7	x	x	8	-4
COc1ccc(OCC(=O)NCCNC(=O)c2ccccn2)cc1	4	5888	-0.2	-7	5	-4	-1
Cc1cccc(-n2[nH]c(C)c(C=Nc3ccc4[nH]c(=O)[nH]c4c3)c2=O)c1	9	1986	0.2	-1	-4	-23	-6
O=C(/C=C/c1ccc([N+](=O)[O-])cc1)NCc1ccccn1	0	2017	1.1	-11	7	-1	-5
Cc1ccc(S(=O)(=O)NC(=O)c2cccn2C)cc1	-1	16326*	-3.0	-2	6	-9	-2
COc1cc(CCC(=O)Nc2ccc(Cl)c(C(F)(F)F)c2)cc(OC)c1OC	-12	2166	4.6	6	2	-15	-3
CN(C)S(=O)(=O)c1cc(NC(=O)COC(=O)CCc2ccccc2)ccc1Cl	14	3664	6.9	8	11	-23	8
Cc1ccc(-c2cc(C(F)(F)F)n3nc(C(=O)Nc4ccon4)cc3n2)cc1C	4	3963	3.3	11	1	-8	0
O=C(Nc1ccc(Cl)cc1)OCc1cc(-c2ccccc2)on1	-21	2856	-19	19	-16	-20	3
O=C1c2ccc(Oc3ccc([N+](=O)[O-])cc3)cc2C(=O)N1c1ccncc1	11	2423	0.6	-1	9	-9	8
CCOc1ccc2nc(SCc3ccc(OC)cc3)sc2c1	90*	2033	7.1	6	3	-49	-18

Compounds listed so far with a COOH group, in the order listed:
SMILES	ugtP null kill	Autofluor counter	RN4220 kill	Mtb hypoxia inh	Mtb hypoxia inh growth	PrP UTR inh	BJeLR viability
Cc1oc(C)c(S(=O)(=O)NCc2cccs2)c1C(=O)O	1	4495	3.0	-2	-8	-12	-5
CCOC(=O)c1cc(-c2ccc(OC)cc2)nn1-c1ccc(C(=O)O)cc1	5	4263	6.4	3	16	-11	6
COc1ccc(C(=O)O)cc1S(=O)(=O)Nc1cc(Cl)ccc1N1CCOCC1	3	3510	1.0	4	2	-11	x
